AmpC inh no det – blocks E. coli AmpC beta-lactamase in absence of detergent | P00811 | AmpC nitrocefin hydrolysis, absorbance 480 nm, no detergent; potencies from a single point are estimates | Potency, µM (highest dose often 28.7 µM), without a hit: at the highest dose activity change, negative = inhibition | 1.8% of 71,000 active | AID 585; active = falling curve, for most hits resting on a single point; inconclusive = weak or doubtful change; inactive = flat or rising curve; note: % of control where 0% means no effect; about half of the hits show no inhibition at the top dose; a quarter of the inactives give rising signals
Target sequence (P00811 whole entry, looked up): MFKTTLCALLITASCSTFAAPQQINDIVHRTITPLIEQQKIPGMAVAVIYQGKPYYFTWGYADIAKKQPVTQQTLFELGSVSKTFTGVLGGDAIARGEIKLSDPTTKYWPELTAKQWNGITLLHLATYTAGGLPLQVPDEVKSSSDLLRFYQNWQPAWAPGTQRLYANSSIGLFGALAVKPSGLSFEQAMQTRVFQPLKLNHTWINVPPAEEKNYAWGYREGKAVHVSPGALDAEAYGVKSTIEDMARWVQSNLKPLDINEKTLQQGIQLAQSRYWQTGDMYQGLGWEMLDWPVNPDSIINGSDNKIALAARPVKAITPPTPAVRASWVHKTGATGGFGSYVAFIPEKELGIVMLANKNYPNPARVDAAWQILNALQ
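AmpC in 20 mM phosphate buffer pH 7.0 was preincubated 15 min at room temperature with compounds. Nitrocefin (800 uM stock) was then added and hydrolysis followed at 480 nm every 20 s for 4 min.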
* hit, by the source's call; & = joins results of further samples; ! = repeats disagree; [ ] = another dose, or the depositor's remark. Potency is the fitted concentration of half-maximal effect.

cpd	SMILES	AmpC inh no det
1	CCOc1ccc(N2C(=O)CC(N3CCOCC3)C2=O)cc1 (stereo not drawn)	3%
2	NCCCc1c(-c2ccccc2)nc(N)[nH]c1=O	-12%[5.75 µM]
3	Cc1cc(C)cc(N(C(=O)Cn2nnc3ccccc32)C(C(=O)NCc2ccco2)c2ccncc2)c1 (stereo not drawn)	82%
4	COc1ccccc1C(=O)NCCc1nc2ccccc2n1C	4%
5	CC1=NCCc2c1[nH]c1cc(O)ccc21	13µM*!
6	COc1ccc2cc(C(c3nnnn3Cc3ccccc3)N3CCCCCC3)c(=O)[nH]c2c1 (stereo not drawn)	39%
7	Cc1ccn2cc(-c3nonc3C)cc2c1	2%
8	CCN(C(=O)COC(=O)c1c(-c2ccccc2)noc1C)C1CCS(=O)(=O)C1 (stereo not drawn)	21%
9	O=C(NC1CC1)C1CSC(c2cccnc2)=N1 (stereo not drawn)	0%
10	Cc1cc(NS(=O)(=O)c2ccc(NC(=O)c3cnc4scc(C)n4c3=O)cc2)nc(C)n1	32%
11	Oc1ccc2[nH]cnc2c1CN1CCCCC1	-15%
12	O=C(O)CC1C(=O)NCCN1CCCc1ccccc1 (stereo not drawn)	4%
13	COc1ccccc1-n1c(SCC(=O)NC(C)(C)C)nnc1-c1ccco1	39%
14	Cc1nc2nc[nH]c2cc1Br	-4%
15	COCC(=O)N1CCC[C@@]2(CCN(Cc3ccccc3)C2)C1	18%
16	Cc1ccc2cc(C(c3nnnn3C3CCCC3)N3CCN(c4ccc(F)cc4)CC3)c(=O)[nH]c2c1 (stereo not drawn)	23%
17	CCCc1cc(=O)[nH]c(SCC(=O)CSc2nc(CCC)cc(=O)[nH]2)n1	13%
18	CCCC(C(=O)NC1CCCC1)N(C(=O)Cn1nnc(-c2ccc(C)o2)n1)C1CCCC1 (stereo not drawn)	44%
19	Cc1nn(C)c(C)c1NC(=O)CCSc1nc(-c2ccco2)cc(C(F)(F)F)n1	91%
20	N#CCCSC(=S)[C@H]1CCCC1=N	2%[5.75 µM]
21	Cc1ccc(C(=O)NCCN2CCOCC2)cc1Cl	-11%
22	CCCCn1c(SCC(=O)Nc2nnc(CC)s2)nc2c1c(=O)n(C)c(=O)n2C	53%
23	COC(=O)C(C(=O)OC)=C(/C=C/C=C/N(C)C)N(C)C	27%
24	COc1ccc(C)cc1NC(=O)CN1CCN(S(=O)(=O)c2ccc(Cl)cc2)CC1	57%
25	O=C(NCCCN1CCCC1)c1cccc(N2CCCC2=O)c1	-10%
26	CC1=C(C(=O)NC2CCC(C)CC2)C2(CCC(C)CC2)OC1=O (stereo not drawn)	2%
27	CSc1nc(N)c2ncn([C@H]3O[C@H](COP(=O)(O)OP(=O)(O)OP(=O)(O)O)[C@@H](O)[C@@H]3O)c2n1	40%
28	N=c1c[n+](N2CCOCC2)[n-]o1	-6%
29	O=C(COC(=O)c1ccco1)Nc1ccc2c(c1)OCCO2	-14%
30	COc1cccc(NC(=O)CSc2nncn2N)c1	11%
31	CC(C)CN1CC[C@@]2(CCCN(C(=O)c3cccc(F)c3)C2)C1	14%
32	S=C(S)N1CCCC1	2%&0%
33	CC(O)CCl (stereo not drawn)	-10%
34	O=C(Nc1ccc(N2CCN(C(=O)c3ccc(Cl)cc3)CC2)cc1)c1ccc(Br)o1	33%
35	Cc1cc(NC(=O)CSc2nnc(-c3ccncc3)n2N)ccc1Br	6%
36	CN1CCN(C(=O)c2cc3nc(-c4ccc(Cl)cc4)cc(C(F)(F)F)n3n2)CC1	48%
37	Cc1c(C(=O)O)c(-c2ccccc2)nn1-c1ccccc1	-12%
38	CCCC(=O)Nc1ccccc1-c1nnn(CC(=O)Nc2ccc(OC)cc2)n1	-12%
39	Cc1cccn2cc(CCNS(=O)(=O)c3ccc4c(c3)OCCO4)nc12	4%
40	CCOC(=O)c1[nH]c(C)c(C(=O)OCC(=O)N2CCCCC2C)c1C (stereo not drawn)	49%
41	COC(=O)CS(=O)(=O)c1cc(Br)cc2c1N(C(C)=O)CC2	10%
42	COc1ccc(-n2cnc3c(cnn3CCC#N)c2=N)cc1	-8%
43	CC12CN3CC(c4ccccc4)(CN(C1)C31CCCCC1)C2=O	0%
44	Cc1c(NC(=O)Nc2ccc(Cl)c(Cl)c2)c(=O)n(-c2ccccc2)n1C	-16%
45	FC(F)(F)/C(=N\P(=S)(N1CCOCC1)N1CCOCC1)N1CCOCC1	6%
46	C/C(NC(=O)c1ccccc1)=C1/C(=O)CC2C1C2(C)C (stereo not drawn)	3%
47	COC(=O)[C@@H]1[C@@H]2C[C@H]3c4[nH]c5cc(OC)ccc5c4CCN3C[C@@H]2C[C@H](OC(=O)/C=C\c2cc(OC)c(OC)c(OC)c2)[C@H]1OC	100%[12.8 µM]
48	CC12CCC(C(=O)Nc3ccc4c(c3)OCCO4)(OC1=O)C2(C)C (stereo not drawn)	21%
49	O=C1c2ccccc2NC(c2ccc(F)cc2)N1Cc1ccco1 (stereo not drawn)	-13%
50	COCCN(C(=O)Cn1nnc2ccccc21)C(C(=O)NC1CCCC1)c1cccc(OC)c1OC (stereo not drawn)	49%
51	Cc1ccccc1-c1cncnc1NCc1ccccc1	23%
52	CN1C=CC=C/C1=C(\C#N)c1nc2ccccc2[nH]1	-14%
53	COc1ccc(-n2nc(C(=O)Nc3ccc4c(c3)OCO4)c3c4ccccc4n(C)c3c2=O)cc1	10%
54	Cc1cccc2nc(C(F)(F)F)nc(=O)n12	-13%
55	CCCCN(CCCC)S(=O)(=O)c1ccc(C(=O)Nc2nnc(CSC)o2)cc1	-13%
56	Cc1ccc(-n2ncc3c(=O)[nH]c(SC(C)C)nc32)cc1	14%

Part of the list above, as labelled records.
39	Cc1cccn2cc(CCNS(=O)(=O)c3ccc4c(c3)OCCO4)nc12
  AmpC inh no det: 4%
37	Cc1c(C(=O)O)c(-c2ccccc2)nn1-c1ccccc1
  AmpC inh no det: -12%

Further structures:
cpd	SMILES	AmpC inh no det
57	COc1ccc2nc(NC(=O)CSc3nc4cccnc4n3C)sc2c1	76%
58	COc1ccc(-c2nc3cnc(N4CCOCC4)nc3n(-c3ccc(OC)cc3)c2=O)cc1	62%
59	CCOC(=O)NC(C(F)(F)F)(C(F)(F)F)P(=O)(c1ccccc1)c1ccccc1	-10%
60	COc1ccc(C(=O)Oc2c(CN3CCOCC3)cc(Cl)c3cccnc23)cc1	132%
61	Cc1ccc(O)c(-c2cc(C(F)(F)C(F)F)[nH]n2)c1	-5%
62	COc1ccc(S(=O)(=O)N(C)CC(=O)Nc2ccc3c(c2)OCCO3)cc1OC	16%
63	COC(=O)c1ccc(NC(=O)CN2C(=O)CCC2=O)cc1	-1%
64	CCC(=O)c1ccc(OCC(=O)Nc2nn3cnnc3s2)cc1	-23%
65	CCOC(=O)N1CCC(NS(=O)(=O)c2cc3c(cc2Cl)NC(=O)CO3)CC1	-5%
66	CCOC(=O)c1c(N)n[nH]c1-c1ccc(OC)cc1	-2%
67	CC1=C(C(=O)N(C)C)C(c2cccc(Cl)c2)NC(=O)N1 (stereo not drawn)	-4%
68	COC(=O)C1=CN(C)C=C(C(=O)OC)C1c1ccc(Cl)cc1Cl	2%
69	COc1ccc(C2C(C(=O)NCCN(C)C)c3cc(OC)c(OC)cc3C(=O)N2C)cc1OC (stereo not drawn)	-5%
70	c1ccc(-n2c(Sc3cnccn3)nnc2-c2cccs2)cc1	13%
71	CCOC(=O)CSc1nnc(CSc2nc3ccccc3s2)n1C	31%
72	O=C1CSc2ccc(C(=O)N3CCN(c4ccccn4)CC3)cc2N1	8%

Next section (three carried over from the part before).
cpd	SMILES	AmpC inh no det
70	c1ccc(-n2c(Sc3cnccn3)nnc2-c2cccs2)cc1	13%
71	CCOC(=O)CSc1nnc(CSc2nc3ccccc3s2)n1C	31%
72	O=C1CSc2ccc(C(=O)N3CCN(c4ccccn4)CC3)cc2N1	8%
73	COc1cccc(N2C(=O)C3CCCN3C2c2ccc(Cl)cc2)c1 (stereo not drawn)	42%
74	Cc1cc2nnc(SCC(=O)N3C(C)CCCC3C)n2c(N)n1 (stereo not drawn)	-13%
75	O=C(COc1ccc(Cl)cc1)OCC(=O)N1CCCC1	2%
76	Cc1cnc(-c2nnc(N(C)C(=O)c3cccnc3)s2)cn1	5%
77	COc1ccc(NC(=O)CSc2nc3c(c(=O)n2-c2ccc(F)cc2)SCC3)cc1	-7%
78	CCc1nnc(NC(=O)CSc2nnc(Cc3ccccc3)n2-c2ccc(OC)cc2)s1	49%
79	CCOC(=O)c1cc(=O)cc(C(=O)OCC)o1	-6%
80	Cc1cccc(NC(=O)c2cnc3sccn3c2=O)c1	-4%
81	O=C(CCCn1c(=S)[nH]c2ccccc2c1=O)N1CCOCC1	-13%
82	CCN(CC)C(=O)C1CCCN(C(=O)Nc2ccc3nsnc3c2)C1 (stereo not drawn)	10%
83	Cc1cc(NC(=O)CSc2ccc(Cl)cc2)no1	-17%
84	CCOC(=O)N1CCN(Cc2ccccc2Cl)CC1	27%
85	COc1ccc2[nH]c(C(=O)O)c(CCNC(C)=O)c2c1	-2%
86	CCc1ccccc1-n1c(SCC(=O)N2CCCC2)nnc1-c1ccccn1	57%
87	COc1cc2c3c(c1)C1(C(=O)N3C(C)(C)C=C2C)C(C#N)=C(N)Oc2cc(O)ccc21 (stereo not drawn)	0%
88	O=C(COc1ccc2c3c(c(=O)oc2c1)CCC3)NC1CCCCC1	45%
89	N#Cc1nc(-c2ccccc2F)oc1N1CCCC1	14%
90	COC(=O)c1ccc(CSc2nccn2C)cc1	-11%
91	COc1cc(CN2CCN(c3cccc(C)c3C)CC2)cc(OC)c1O	64%
92	COc1ccc(OCCCN2CCCC(C)C2)cc1 (stereo not drawn)	0%
93	CCOc1cc(C2C(C(=O)N3CCCCC3)=C(C)NC3=C2C(=O)CC(C)(C)C3)ccc1O (stereo not drawn)	8%
94	O=C(O)c1ccc(Br)c(S(=O)(=O)N2CCCC2)c1	0%
95	COc1cccc(CN2CCN(C(=O)CC(C)C)CC2)c1	15%
96	CC1(C)Cc2ccccc2C(N)=C1C#N	-4%
97	CCCC(=O)c1ccc(N2CCN(S(=O)(=O)c3ccc(C)cc3)CC2)c(F)c1	5%
98	COc1ccc2nc3oc(C(=O)NC4CCN(Cc5ccccc5)CC4)cc3cc2c1	46%
99	CCOCCCNC(=O)CCS(=O)(=O)Cc1ccc(C)cc1	-3%
100	CN(C)c1ccc(-c2nccc(Nc3ccc(F)cc3)n2)cc1	105%
101	CS(=O)(=O)Nc1ccc(S(=O)(=O)Nc2nccs2)cc1	-3%
102	COC(=O)[C@@]1(Cc2ccccc2)[C@H]2c3cc(C(=O)N4CCCC4)n(Cc4cccc5ccccc45)c3C[C@H]2CN1C(=O)c1ccccc1	98%
103	O=C(NC(Cc1ccccc1)c1nc2ccccc2[nH]1)C1CC(=O)N(c2ccc3c(c2)OCCO3)C1 (stereo not drawn)	3%
104	COc1ccc(OC)c(N(CC(=O)Nc2ccc3c(c2)OCCO3)S(C)(=O)=O)c1	32%
105	O=C1c2cccnc2C(O)N1C1CCCCC1 (stereo not drawn)	5%
106	O=C(c1ccccc1)c1ccc2nc[nH]c2c1	-2%
107	Cc1ccc2c(c1)C(C)(C)[C@]1(C)NC(=O)CCN21	-6%
108	Cc1cc(C)c(C)c(OCCOCCN2CCOCC2)c1	50%
109	Cc1cccc(NC(=O)COc2ccc(Br)cc2)n1	-3%
110	O=C(N[C@@H](c1ccccc1)[C@@H]1C[C@H]1C(=O)NCc1ccccn1)OCc1ccccc1	-24%
111	CCOc1ccccc1C(=O)Nn1c(C2CCC2)nc2ccccc2c1=O	42%
112	Cc1ccccc1C(=O)Nc1ccccc1	-12%
113	COc1cccc(-c2nc(NCc3cccs3)c3ccccc3n2)c1	-5%
114	COc1ccc(Cl)c(NCCC(=O)O)c1	-2%
115	CCCc1cc2c(n1Cc1ccc(OC)cc1)C(C)C1CN(C(=O)c3ccccc3)C(C)(C(=O)OC)C21 (stereo not drawn)	111%
116	O=C(NCc1ccccc1)NC1(C(=O)N2CCOCC2)CCCCC1	-6%
117	Cc1noc(C)c1-c1nc(N(C)Cc2ccco2)c2ccccc2n1	21%
118	Cc1noc(C)c1S(=O)(=O)Nc1ccc(C(=O)NC2CCCCCC2)cc1	-16%
119	COc1ccc(C(=O)O[C@H]2CC[C@@]3(C)[C@H]4CC[C@H]5[C@]3(C[C@]3(O)[C@H]6CN7C[C@H](C)CC[C@H]7[C@](C)(O)[C@]6(O)[C@H](O)C[C@]53O)O[C@]24O)cc1OC	24%[5.75 µM]
120	CC1(C)C(=O)OC(c2c(F)c(F)c(F)c(F)c2F)C2(CCCCC2)C1=O (stereo not drawn)	7%
121	O=C(O)CSc1nnc(Cn2nnc3ccccc32)n1CCc1ccccc1	-4%
122	Cc1cc(Cl)ccc1OCC(=O)Nc1ccccc1N1CCOCC1	8%
123	COc1cc(NC(=O)C2CCCN2C(=O)C2CCC(C)CC2)cc(OC)c1OC (stereo not drawn)	81%
124	CC(C)CNc1cc(=O)n(C)c(=O)n1C	-6%

5 records picked at random from the list so far:
cpd	SMILES	AmpC inh no det
6	COc1ccc2cc(C(c3nnnn3Cc3ccccc3)N3CCCCCC3)c(=O)[nH]c2c1 (stereo not drawn)	39%
103	O=C(NC(Cc1ccccc1)c1nc2ccccc2[nH]1)C1CC(=O)N(c2ccc3c(c2)OCCO3)C1 (stereo not drawn)	3%
51	Cc1ccccc1-c1cncnc1NCc1ccccc1	23%
99	CCOCCCNC(=O)CCS(=O)(=O)Cc1ccc(C)cc1	-3%
59	CCOC(=O)NC(C(F)(F)F)(C(F)(F)F)P(=O)(c1ccccc1)c1ccccc1	-10%

Molecules shown so far containing a thiophene ring, fused or not, in the order listed:
cpd	SMILES	AmpC inh no det
70	c1ccc(-n2c(Sc3cnccn3)nnc2-c2cccs2)cc1	13%
113	COc1cccc(-c2nc(NCc3cccs3)c3ccccc3n2)c1	-5%

A portion of the library; rates above refer to the full screens.
